# Vaccinia inh: Vaccinia orthopox stage-specific inhibition; Vaccinia-infected cells, mCherry/Venus stage reporter fluorescence; active compounds read low; some inactives read as strong as hits; activity change (mCherry), % (no concentration beside the values); 89,000 compounds, 0.01% hits; AID 1053133;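 active = mCherry past -33% and 40 or more points under the early reporter, replicates agreeing; inconclusive = past -33% without that gap or agreement; tested in A549 cells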;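 note: scaled between vehicle wells and reference inhibitor wells; 23 nL library stock went into each well; one replicate is shown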
# Vaccinia inh Venus: also measured in Vaccinia inh; calls as there; activity change (Venus), %; measured here: Venus reporter, other viral stage;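 negative = less Venus signal; first of two replicates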
# Active calls of the source: *; ? = inconclusive; nt = no result given. Only part of the results is shown; count on the stated rates, not on these rows.
# The opening 5 compounds (preview)
mol,Vaccinia inh,Vaccinia inh Venus
COCC(=O)N1CC(=O)N2[C@@H](CO)[C@H](c3ccc(C#Cc4cccc(OC)c4)cc3)[C@@H]2C1,26,3
N#C[C@@H]1[C@H](c2ccccc2C2=CCCC2)[C@H](CO)N1C(=O)C1CC1,9,0
C[C@@H]1CN([C@H](C)CO)C(=O)c2cc(C#CC(C)(C)O)cnc2O[C@@H]1CN(C)C(=O)c1ccccc1F,7,5
CN(C)CC(=O)Nc1ccc2c(c1)[C@@H]1C[C@@H](CC(=O)NCc3ccccn3)O[C@@H](CO)[C@@H]1O2,0,1
Cc1ccc(S(=O)(=O)N(C)C[C@H]2Oc3ccc(NC(=O)NC(C)C)cc3CC(=O)N([C@@H](C)CO)C[C@H]2C)cc1,1,-3

# The whole of this part, repeating the preview:
mol,Vaccinia inh,Vaccinia inh Venus
COCC(=O)N1CC(=O)N2[C@@H](CO)[C@H](c3ccc(C#Cc4cccc(OC)c4)cc3)[C@@H]2C1,26,3
N#C[C@@H]1[C@H](c2ccccc2C2=CCCC2)[C@H](CO)N1C(=O)C1CC1,9,0
C[C@@H]1CN([C@H](C)CO)C(=O)c2cc(C#CC(C)(C)O)cnc2O[C@@H]1CN(C)C(=O)c1ccccc1F,7,5
CN(C)CC(=O)Nc1ccc2c(c1)[C@@H]1C[C@@H](CC(=O)NCc3ccccn3)O[C@@H](CO)[C@@H]1O2,0,1
Cc1ccc(S(=O)(=O)N(C)C[C@H]2Oc3ccc(NC(=O)NC(C)C)cc3CC(=O)N([C@@H](C)CO)C[C@H]2C)cc1,1,-3
NCC[C@H]1CC[C@H](NC(=O)C2CCCCC2)[C@@H](CO)O1,-3,-5
COc1ccc(C(=O)N2C[C@@H]3[C@H](c4ccccc42)[C@@H](CO)N3C(=O)c2ccc(F)cc2)cc1,16,12
CNC[C@@H]1Oc2ccc(NS(=O)(=O)c3ccc(F)cc3)cc2CC(=O)N([C@H](C)CO)C[C@H]1C,-7,-4
COc1ccc(NC(=O)Nc2cccc3c2O[C@@H](CN(C)S(=O)(=O)c2cccs2)[C@H](C)CN([C@@H](C)CO)C3=O)cc1,15,11
O=C(NC1CCCC1)N[C@@H]1CC[C@H](CC(=O)N2CCOCC2)O[C@H]1CO,-2,4

# Reprinted from the part before: four entries; new compounds follow.
mol,Vaccinia inh,Vaccinia inh Venus
COc1ccc(C(=O)N2C[C@@H]3[C@H](c4ccccc42)[C@@H](CO)N3C(=O)c2ccc(F)cc2)cc1,16,12
CNC[C@@H]1Oc2ccc(NS(=O)(=O)c3ccc(F)cc3)cc2CC(=O)N([C@H](C)CO)C[C@H]1C,-7,-4
COc1ccc(NC(=O)Nc2cccc3c2O[C@@H](CN(C)S(=O)(=O)c2cccs2)[C@H](C)CN([C@@H](C)CO)C3=O)cc1,15,11
O=C(NC1CCCC1)N[C@@H]1CC[C@H](CC(=O)N2CCOCC2)O[C@H]1CO,-2,4
Cc1ccc(S(=O)(=O)N(C)C[C@H]2OCCCC[C@H](C)Oc3ccc(NC(=O)c4ccccc4)cc3C(=O)N([C@@H](C)CO)C[C@@H]2C)cc1,-30,-9
CNC[C@H]1Oc2cc(C#CCOC)ccc2S(=O)(=O)N([C@@H](C)CO)C[C@@H]1C,10,11
C[C@H](CO)N1C[C@H](C)[C@H](CN(C)S(=O)(=O)c2cn(C)cn2)Oc2ccc(NC(=O)CCCN(C)C)cc2C1=O,-8,-5
CCC(=O)N1CC2(C1)[C@@H](c1ccc(-c3ccc(F)cc3)cc1)[C@H](CO)N2C(C)=O,-3,-5
C[C@@H]1CN([C@@H](C)CO)C(=O)c2cccc(NS(=O)(=O)c3cn(C)cn3)c2O[C@H]1CN(C)CC1CCCCC1,6,-2
O=S(=O)(c1ccccc1F)N1CC[C@@H]2[C@H](CO)Nc3ccc(-c4ccccc4F)cc3[C@@H]21,?,nt
C[C@@H]1CN([C@H](C)CO)C(=O)Cc2cc(NC(=O)Cc3ccccc3)ccc2O[C@@H]1CN(C)Cc1ccc2c(c1)OCO2,-11,-20
COc1ccc(S(=O)(=O)Nc2ccc3c(c2)CC(=O)N([C@H](C)CO)C[C@H](C)[C@H](CN(C)Cc2ccc(Oc4ccccc4)cc2)O3)cc1,-22,-19
CCCNC(=O)N(C)C[C@@H]1Oc2ncc(C#Cc3ccncc3)cc2C(=O)N([C@@H](C)CO)C[C@@H]1C,21,17
CO[C@H]1CN(C)C(=O)c2ccc(NC(=O)NC(C)C)cc2OC[C@H](C)N(C(=O)NC(C)C)C[C@H]1C,8,14
C[C@H]1CN([C@@H](C)CO)S(=O)(=O)c2ccc(C#Cc3ccc(F)cc3)cc2O[C@H]1CN(C)C(=O)NC1CCCC1,?,nt
COCC#Cc1ccc2c(c1)O[C@H](CN(C)Cc1cncnc1)[C@@H](C)CN([C@@H](C)CO)S2(=O)=O,13,5
CCS(=O)(=O)N1CCCCN2[C@H](CO)[C@H](c3ccc(-c4ccc(C#N)cc4)cc3)[C@H]2C1,-5,-3
CCc1cnc(N2[C@H](C#N)[C@H](c3ccc(C#CC(C)C)cc3)[C@H]2CO)s1,-12,3
C[C@H]1CN([C@@H](C)CO)C(=O)c2cccc(NC(=O)c3ccc(-c4nccs4)cc3)c2O[C@H]1CN(C)Cc1ccccc1,7,18
CN1C(=O)c2cc(NC(=O)Cc3ccccc3)ccc2OC[C@H]2O[C@H](CC(=O)NCC3CC3)CC[C@@H]21,1,0
C[C@@H]1CN([C@H](C)CO)C(=O)c2cc(NS(=O)(=O)c3cccs3)ccc2O[C@H]1CN(C)Cc1ccc(Oc2ccccc2)cc1,12,7
O=C([C@@H]1[C@@H](CO)[C@@H]2Cn3c(cccc3=O)[C@H]1N2CC1CC1)N1CCc2ccccc2C1,6,0
O=S(=O)(c1ccccc1)N1CCCCN2[C@H](C1)[C@@H](c1ccc(-c3cncnc3)cc1)[C@@H]2CO,8,-4
COc1cccc(-c2cnc3c(c2)C(=O)N([C@@H](C)CO)C[C@@H](C)[C@H](CN(C)CC2CCOCC2)O3)c1,15,11
COc1ccc(NC(=O)N(C)C[C@H]2OCCCC[C@@H](C)Oc3ccc(NC(=O)NC4CCCCC4)cc3C(=O)N([C@@H](C)CO)C[C@H]2C)cc1,14,2
COc1ccc2c3c([nH]c2c1)[C@@H](CO)N(C(=O)c1ccncc1)CC31CN(C(=O)c2ccncc2)C1,10,5
CC(C)NC(=O)N(C)C[C@@H]1Oc2cc(C#C[C@@H](C)O)ccc2S(=O)(=O)N([C@H](C)CO)C[C@H]1C,19,3
COc1ccc2c3c(n(C)c2c1)[C@@H](CO)N(C(=O)c1ccccn1)CC31CN(C(=O)c2ccccn2)C1,20,9
C[C@@H]1CN([C@@H](C)CO)C(=O)c2cc(NS(=O)(=O)c3cn(C)cn3)ccc2O[C@@H](C)CCCCO[C@H]1CN(C)C(=O)c1ccccc1,30,17
COc1ccc2c3c([nH]c2c1)[C@H](CO)N(C(=O)c1ccc(F)cc1)CC31CCN(C(=O)Nc2ccc(F)cc2)CC1,-5,-11
CC(C)NC(=O)Nc1ccc2c(c1)C(=O)N([C@H](C)CO)C[C@H](C)[C@@H](CN(C)S(=O)(=O)c1cccs1)OCCCC[C@H](C)O2,17,13
COCC(=O)N(C)C[C@@H]1Oc2cc(-c3ccccc3)ccc2S(=O)(=O)N([C@H](C)CO)C[C@H]1C,22,11
CO[C@H]1CN(C)C(=O)c2ccc(NS(=O)(=O)c3ccccc3)cc2OC[C@@H](C)N(Cc2nccs2)C[C@@H]1C,13,6
N#C[C@H]1[C@@H](c2ccc(-c3cccc(F)c3)cc2)[C@@H](CO)N1c1nc(-c2ccccc2)cs1,0,3
N#Cc1ccc(-c2ccc([C@H]3[C@H](CO)N4CCCCN(C(=O)Cc5ccccc5)C[C@@H]34)cc2)cc1,1,-3
COc1ccc(C[C@H]2CCc3cnnn3COC[C@H](c3ccccc3)NC2=O)cc1,9,9
C[C@@H]1CCCCO[C@@H](CN(C)CC2CCCCC2)[C@H](C)CN([C@@H](C)CO)C(=O)c2cc(NC(=O)Cc3ccccc3)ccc2O1,?,nt
Cc1cccc(S(=O)(=O)N2CCCCN3[C@H](CO)[C@H](c4ccc(C#C[C@H](C)O)cc4)[C@@H]3C2)c1,-30,-36
O=C(C[C@H]1CC[C@H](NC(=O)c2cccc(F)c2)[C@@H](CO)O1)NCc1ccccc1,16,16
C[C@H](CO)N1C[C@H](C)[C@@H](CN(C)C(=O)c2ccccn2)Oc2ncc(-c3ccccc3)cc2C1=O,7,15
C/C=C/c1ccc(C2[C@H]3CNC[C@@H]2N3S(=O)(=O)c2cn(C)cn2)cc1 (stereo partly drawn),20,15
CC(C)C#Cc1cnc2c(c1)C(=O)N([C@@H](C)CO)C[C@@H](C)[C@H](CN(C)C(=O)c1ccccc1)O2,-1,-5
OC[C@@H]1[C@@H](c2ccccc2)C2(CN(CCC(F)(F)F)C2)N1Cc1nccs1,3,-8
N#Cc1cccc(-c2ccc3c(c2)[C@@H]2[C@@H](CCN2S(=O)(=O)c2ccc(F)cc2)[C@@H](CO)N3)c1,?,nt
C[C@H]1CN([C@@H](C)CO)S(=O)(=O)c2ccc(C#Cc3ccncc3)cc2O[C@H]1CN(C)C(=O)C1CCOCC1,-29,-13
CO[C@@H]1CN(C)C(=O)c2cc(NC(=O)C3CC3)ccc2OC[C@H](C)N(C(=O)Cc2ccccn2)C[C@H]1C,28,13
Cc1ccccc1-c1cnc2c(c1)C(=O)N([C@@H](C)CO)C[C@H](C)[C@H](CN(C)CC1CCOCC1)O2,7,-1
C[C@@H]1CN([C@H](C)CO)C(=O)Cc2cc(NC(=O)Nc3ccc(C(F)(F)F)cc3)ccc2O[C@@H]1CN(C)Cc1ccc(C(=O)Nc2ccccc2N)cc1,-9,10
O=C(O)C1=C[C@H](c2csc3ccccc23)C[C@H](OCCCCO)O1,13,12
COc1cccc(-c2ccc3c(c2)O[C@H](CN(C)Cc2cccnc2)[C@@H](C)CN([C@H](C)CO)S3(=O)=O)c1,?,nt
C[C@@H]1CN([C@H](C)CO)C(=O)c2cccc(NS(=O)(=O)c3ccccc3)c2O[C@H]1CN(C)S(=O)(=O)c1cccs1,1,-5
Cc1ccc(S(=O)(=O)N(C)C[C@@H]2Oc3ccc(NC(=O)Nc4ccccc4)cc3CC(=O)N([C@@H](C)CO)C[C@@H]2C)cc1,?,nt
O=Cc1ccc(NC(=O)CCCCCCC(=O)NOCc2ccccc2)cc1,10,13
Cc1ccc(S(=O)(=O)Nc2cccc3c2O[C@@H](CN(C)Cc2ccc(Cl)c(Cl)c2)[C@H](C)CN([C@H](C)CO)C3=O)cc1,-28,-21

# Remaining list, next part:
mol,Vaccinia inh,Vaccinia inh Venus
Cc1cccc(S(=O)(=O)N2CCCCN3[C@H](C2)[C@H](c2ccc(C#C[C@H](C)O)cc2)[C@@H]3CO)c1,-14,-28
COc1ccc(S(=O)(=O)N(C)C[C@H]2OCCCC[C@H](C)Oc3ccc(NS(=O)(=O)c4ccc(F)cc4)cc3C(=O)N([C@@H](C)CO)C[C@H]2C)cc1,-27,-9
O=C(C[C@H]1C[C@H]2c3cc(NC(=O)Nc4ccc(C(F)(F)F)cc4)ccc3O[C@H]2[C@@H](CO)O1)NCc1cc(F)ccc1F,-1,6
C[C@H](CO)N1C[C@H](C)[C@H](CN(C)CC2CC2)Oc2c(NS(=O)(=O)c3ccc(Cl)cc3)cccc2C1=O,-7,-14
Cc1ccc(S(=O)(=O)Nc2ccc3c(c2)C(=O)N([C@@H](C)CO)C[C@@H](C)[C@H](CN(C)C(=O)Nc2ccccc2)OCCCC[C@@H](C)O3)cc1,-11,-5
Cc1ccc(S(=O)(=O)N(C)C[C@@H]2OCCCC[C@H](C)Oc3ccc(NS(=O)(=O)c4c(C)noc4C)cc3C(=O)N([C@@H](C)CO)C[C@@H]2C)cc1,?,nt
C[C@H]1CN([C@@H](C)CO)C(=O)c2cc(NC(=O)Cc3cn(C)c4ccccc34)ccc2O[C@H]1CN(C)C,-2,-5
CN1C[C@H]2[C@@H](c3ccccc31)[C@H](CO)N2C(=O)C1CCOCC1,15,9
O=C(c1ccccc1)N1CC[C@@H]2[C@@H](CO)Nc3ccc(C#Cc4ccccc4F)cc3[C@@H]21,-6,-1
O=C(Cc1ccncc1)NCC[C@@H]1CC[C@H](NC(=O)C2CCCC2)[C@@H](CO)O1,-10,0
Cc1ccc(S(=O)(=O)N[C@@H]2CC[C@@H](CC(=O)N3CCc4ccccc4C3)O[C@@H]2CO)cc1,-8,-6
C[C@@H]1CN([C@H](C)CO)C(=O)Cc2cc(NS(=O)(=O)c3cccs3)ccc2O[C@@H]1CN(C)Cc1ccc(Oc2ccccc2)cc1,-18,-11
COC(=O)C(CC#Cc1ccc2c(c1)[C@]1(C(=O)N2)[C@H](c2ccc(OCCO)cc2)N2[C@H](c3ccccc3)[C@H](c3ccccc3)OC(=O)[C@H]2[C@@H]1C(=O)N1CCN(c2ncccn2)CC1)C(=O)OC,16,9
COc1cccc(NC(=O)N[C@H]2CC[C@H](CC(=O)N3CCN(C)CC3)O[C@H]2CO)c1,14,11
N#C[C@@H]1[C@H](c2ccccc2C2=CCCC2)[C@@H](CO)N1S(=O)(=O)c1ccccc1,-2,-3
CS(=O)(=O)N1CCCCN2[C@H](C1)[C@@H](c1ccc(Br)cc1)[C@@H]2CO,20,-4
C/C=C/c1ccc([C@@H]2[C@@H](CO)N3CCCCN(C(=O)Nc4ccccc4F)C[C@H]23)cc1,5,-6
C[C@H](CO)N1C[C@H](C)[C@H](CN(C)C(=O)NC2CCCCC2)Oc2ccc(NS(=O)(=O)c3ccc(Cl)cc3)cc2CC1=O,1,1
CN1CCN(C(=O)C2=C[C@@H](c3ccc(Br)cc3)C[C@@H](OCc3ccc(CO)cc3)O2)CC1,-13,-9
